TRPML1 blocker = qHTS for Inhibitors of the Human Mucolipin Transient Receptor Potential 1 (TRPML1); Mucolipin-1 (Homo sapiens), Q9GZU1; activity change, negative = inhibition, % (test concentration not listed); actives 0.02% (n = 390,000); AID 624415, 2012; TRPML1-inducible cells, Ca2+ dye fluorescence, FDSS; hits give low values; inhibition of EC80 agonist-evoked calcium signal; in the data active means activity change below about -50%; inconclusive means about -30% to -50%; inactive means above about -30%;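 note: stimulus is agonist 54-4 at its EC80 concentration; % is set by controls: 0 for no effect and ±100 for the full control effect; compound concentration not given in the record; the text of the record puts the active cut at -80%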
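TRPML1-DL cells, Tet-induced overnight (~16 h, 37 °C) at 1,500 cells/well, were loaded with Ca8 no-wash dye plus quencher for 45-90 min at room temperature. Compounds were pinned during FDSS kinetic reading; agonist 54-4 at EC80 (4 uM final) then added.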
ClpP mod = qHTS Assay for Activators of ClpP | purified B. subtilis ClpP, FRET peptide cleavage, 20 min | Potency, µM (top dose mostly 57.5 µM), for the others: at the top dose activity change, negative = active | actives 1.9% (n = 340,000); active = well fitted falling curve with a large enough effect; inconclusive = small, poorly fitted or top-dose-only effect; inactive = no such curve, though single readings can be large or run the other way; note: potency is the fitted concentration of half-maximal effect; the source files actives as falling curves though it sought activators and does not explain the sign; nearly all actives have a fitted effect of over 65% in size; many hits overshoot -100%
Target sequence (P80244 whole entry, looked up): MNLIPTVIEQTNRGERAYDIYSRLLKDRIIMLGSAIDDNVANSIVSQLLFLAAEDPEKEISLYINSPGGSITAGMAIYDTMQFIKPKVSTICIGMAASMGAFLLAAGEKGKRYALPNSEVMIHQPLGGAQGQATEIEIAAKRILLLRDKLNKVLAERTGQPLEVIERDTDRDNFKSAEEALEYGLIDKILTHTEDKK
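FRET quenching reversal measured ClpP activation: 10 microg/mL B. subtilis ClpP at pH 8 with the FRET-FV decapeptide, read at 430 nm after 320 nm excitation. The 20-min minus 0-min signal was scaled between DMSO/no-enzyme wells and ADEP (5.8 microM final).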
TRPV1 potentiator = HTS Assay for Compounds that Act as Potentiators of the Vanilloid Receptor 1; Transient receptor potential cation channel subfamily V member 1 (Homo sapiens), Q8NER1; TRPV1-expressing cells, Fluo-8 calcium influx, capsaicin EC20 potentiation; host cell line not named in the record; control for the full effect not named in the record; potentiation, % at 8.33 µM; actives 0.02% (n = 320,000); active means potentiation above 80%; inconclusive means 30% to 80%; inactive means below 30%; note: 0% is about no effect
Target sequence (Q8NER1 whole entry, looked up): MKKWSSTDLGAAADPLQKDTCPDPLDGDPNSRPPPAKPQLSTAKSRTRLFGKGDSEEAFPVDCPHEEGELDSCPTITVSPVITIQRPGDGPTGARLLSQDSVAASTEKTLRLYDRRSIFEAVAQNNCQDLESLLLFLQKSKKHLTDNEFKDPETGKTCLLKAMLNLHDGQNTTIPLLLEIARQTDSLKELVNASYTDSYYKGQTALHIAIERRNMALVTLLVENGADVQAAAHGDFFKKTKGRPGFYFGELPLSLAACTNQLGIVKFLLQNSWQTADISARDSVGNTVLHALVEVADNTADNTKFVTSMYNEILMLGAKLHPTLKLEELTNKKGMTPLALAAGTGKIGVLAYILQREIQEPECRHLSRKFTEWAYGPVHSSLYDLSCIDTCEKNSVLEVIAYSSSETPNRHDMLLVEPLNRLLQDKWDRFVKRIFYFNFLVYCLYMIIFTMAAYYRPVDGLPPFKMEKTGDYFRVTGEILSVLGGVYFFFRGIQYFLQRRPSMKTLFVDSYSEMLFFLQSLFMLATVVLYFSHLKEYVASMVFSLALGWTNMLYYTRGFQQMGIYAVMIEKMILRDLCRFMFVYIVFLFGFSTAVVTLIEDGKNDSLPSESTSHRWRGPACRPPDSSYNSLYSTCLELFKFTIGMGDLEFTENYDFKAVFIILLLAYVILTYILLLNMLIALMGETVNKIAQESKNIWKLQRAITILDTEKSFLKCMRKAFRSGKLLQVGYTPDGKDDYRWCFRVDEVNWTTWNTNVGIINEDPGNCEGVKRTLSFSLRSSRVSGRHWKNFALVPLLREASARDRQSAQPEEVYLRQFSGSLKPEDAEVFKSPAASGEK
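Cells expressing TRPV1 were dye-loaded with Fluo-8 and read kinetically: 10 s baseline, 3 min after compound (agonist portion), then 2 min after EC20 capsaicin (allosteric enhancer portion). Calcium-bound dye fluorescence at 480/520 nm.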
Menin-MLL FL inh = qHTS Assay for Inhibitors Targeting the Menin-MLL Interaction in MLL Related Leukemias: Competition With Fluorescein Labeled MLL-derived Peptide | Fluorescence polarization, fluorescein-MLL peptide displacement from menin | AID 1766, 2009 | FP activity change, % at 61.4 µM | 290,000 tested, under 10 active; inconclusive = falling polarisation curve, or a change in total fluorescence; inactive = total fluorescence flat and polarisation flat or rising; no compound was filed as active; the % refers to the polarisation; negative = inhibition;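 note: % of control where 0% means no effect; inhibitors lower the polarisation; unlabelled MLL peptide was the positive control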
gsp antag = qHTS for Antagonists of gsp, the Etiologic Mutation Responsible for Fibrous Dysplasia/McCune-Albright Syndrome: qHTS; gsp-mutant cells, cAMP HTRF, 30 min; control for the full effect not named in the record; Potency, µM (titrated, usually from 76.9 µM), for the others: top-dose activity change, negative = inhibition, most hits filed as inhibitors; actives 0.4% (n = 340,000); AID 624288, 2012; active = falling curve of any shape with a large fitted effect; inconclusive = falling curve, mostly with a smaller effect; inactive = flat or rising curve; cell line not stated here;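 note: intracellular cAMP measured with PDE inhibitor Ro 20-1724 present during compound exposure; potency is the fitted concentration of half-maximal effect; % is set by controls: 0 for no effect and ±100 for the full control effect; nearly all actives have a fitted effect of over 65% in size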
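G418-selected cells were plated in DMEM/10% FBS for 16-24 h at 37C, then treated with compounds plus the PDE inhibitor […] (300 uM solution added) for 30 min at 37C. Intracellular cAMP was measured by HTRF after 30 min lysis at room temperature.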
gsp agonist = qHTS for Agonist of gsp, the Etiologic Mutation Responsible for Fibrous Dysplasia/McCune-Albright Syndrome: qHTS; gsp mutant cells, cAMP HTRF, 30 min; control for the full effect not named in the record; Potency, µM (series often up to 76.9 µM), for inactives: at the top dose activation (cAMP increase), actives largely listed as activators; actives 0.13% (n = 340,000); AID 624287, 2012; active = well fitted activation curve with a large enough effect; inconclusive = small, poorly fitted or top-dose-only effect, or another doubt; inactive = no such curve, though single readings can be large or run the other way; cell line not stated here;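 note: phosphodiesterase inhibitor Ro 20-1724 added with compounds to block cAMP breakdown; potency is the fitted concentration of half-maximal effect; nearly all actives have a fitted effect of over 60% in size; about a fifth of the inactives were tested at one dose only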
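Cells in DMEM/10% FBS with G418 were pretreated with compounds in DMSO plus […] (300 uM stock) for 30 min at 37C. cAMP was measured by HTRF (cAMP-d2 plus anti-cAMP antibody-K) after 30 min at room temperature.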
Sfp PPTase inh = qHTS Assay for Inhibitors of Bacillus subtilis Sfp phosphopantetheinyl transferase (PPTase); 4'-phosphopantetheinyl transferase ffp (Bacillus subtilis), Q9F4F7; Biochemical Sfp PPTase activity, qHTS; Potency, µM, for inactives: max response, negative = inhibition, most hits filed as inhibitors; actives 3.5% (n = 310,000); AID 1490, 2009; active = well fitted inhibition curve with a large enough effect; inconclusive = small, poorly fitted or top-dose-only effect, or another doubt; inactive = no such curve, though single readings can be large or run the other way;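 note: the enzyme is Sfp with the accession as filed and its product quenches rhodamine fluorescence; potency is the fitted concentration of half-maximal effect; 0% = enzyme reaction without inhibitor and -100% = no enzyme wells; top concentration of the series not given in the record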
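Buffer: 50 mM Hepes-Na pH 7.6, 10 mM MgCl2, 0.01% Nonidet P-40, 0.01% BSA. Enzyme 15 nM, pre-exposed to compound 15 min; substrates then added and fluorescence change tracked over 30 min.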
Starred values were filed as active, the others as inactive; ? = inconclusive; nt = no result given; [ ] = another dose, or the depositor's remark.

SMILES	TRPML1 blocker	ClpP mod	TRPV1 potentiator	Menin-MLL FL inh	gsp antag	gsp agonist	Sfp PPTase inh
CC(C)(C)C(=O)N(Cc1ccccc1)c1ccccn1	11.7	0.1%	19.8	3.2	8.1%	1.3%	20.2%
O=C(Nc1ccc(N2CCOCC2)cc1)c1c(F)cccc1Cl	4.5	nt	-17.1	2.2	-8.5%	4.4%[15.4 µM]	13.4%
CCCNC(=O)COC(=O)c1ccc(S(=O)(=O)N2CCCCCC2)cc1	-5.7	1.4%	-12.3	-1.2	8.4%	-10.9%	4.0%
O=C(CCCCn1ccc(=O)[nH]c1=O)Nc1ccc(O)c(C(=O)O)c1	-3.5	nt	nt	nt	7.4%	-23.8%	nt
O=C(N/N=C/c1cccnc1)c1cc(C2CC2)nc2ccccc12	-9.2	nt	5.5	-4.1	4.0%	0.4%[15.4 µM]	17.9%
C=CCn1c(SCC(=O)Nc2c(C)cccc2C)nnc1-c1cnccn1	-18.2	-0.4%	8.6	-0.3	-4.7%	0.9%	9.0%
O=C(COc1ccc(F)cc1)N1CCCCCCC1	3.7	nt	-3.9	-2.5	17.6%	-36.1%[inhibitor]	14.2%
COC(=O)C(Cc1c[nH]c2ccccc12)NC(C)=O (stereo not drawn)	-0.3	-1.8%	6.6	1.6	-0.6%	-1.0%	12.6%
Cc1cc(C(=O)CN2C(=O)NC3(CCCCC3)C2=O)c(C)n1Cc1ccc2c(c1)OCO2	17.0	0.6%	2.2	1.3	-27.6%	-2.8%	0.4%
COc1ccc(OCC(O)CN2C(=O)NC(C)(C)C2=O)cc1 (stereo not drawn)	-2.2	-1.1%	4.9	1.3	15.1%	-33.3%[inhibitor]	-22.3%
Cc1cc2c(cc3c(=O)n(CC(=O)NCCCN4CC(C)CC(C)C4)ncn32)s1 (stereo not drawn)	-6.8	1.4%	20.8	nt	11.3%	15.6%	14.0%
CC(=O)c1cccc(NC(=O)CC2S/C(=N/N=C/c3cccs3)NC2=O)c1 (stereo not drawn)	3.4	1.8%	0.5	6.6	5.7%	-3.9%	-3.4%
CC[n+]1c(/C=C2/C=C(C)CC(C)C2)sc2ccccc21 (stereo not drawn)	-5.2	-3.2%	2.2	6.6	-0.1%	-63.3%[inhibitor]	44.7µM*
COc1cc(C(=O)NC(c2ccccc2)c2ccccc2)cc(OC)c1OC	-7.7	-14.0%	-7.9	1.6	7.1%	3.9%[15.4 µM]	26.1%
Cc1ccnc(Nc2nc(-c3c(C)nc4sccn34)cs2)c1	16.1	-0.3%	4.1	0.7	?	13.3%	?
CC(CC(=O)N1CCN(c2cccc(Cl)c2)CC1)S(=O)(=O)c1ccc2c(c1)NC(=O)CO2 (stereo not drawn)	-0.7	-1.9%	11.7	nt	28.2µM*	-19.6%	-1.5%
O=C(COC(=O)/C=C/c1ccccc1)NC(=O)NCc1ccccc1	12.5	-0.4%	-3.3	nt	-8.4%	-43.4%[inhibitor]	nt
Cc1cccc(C)c1NC(=O)c1c[nH]c2ccccc12	28.1	nt	-3.4	-3.1	-14.6%	-33.7%[inhibitor]	10.5%
COc1ccccc1/C=N/NS(=O)(=O)c1ccccc1	2.7	-1.3%	13.5	-7.4	4.7%	-62.1%[inhibitor]	6.3%
COC(=O)CN(c1nc(C)c(Br)c(OC)n1)S(=O)(=O)c1ccccc1	4.5	-0.4%	-9.1	-3.9	-28.2%	-15.5%	9.8%

Other structures follow.
SMILES	TRPML1 blocker	ClpP mod	TRPV1 potentiator	Menin-MLL FL inh	gsp antag	gsp agonist	Sfp PPTase inh
CCc1ccccc1NC(=O)NNC(=O)CCc1ccc(OC)cc1	-3.9	0.5%	5.1	1.3	15.1%	-47.0%[inhibitor]	25.9%
COc1cc([N+](=O)[O-])ccc1-c1ccc(C(=O)Nc2ccc(NC(C)=O)cc2)o1	-4.1	0.5%	3.4	3.4	13.8%	15.3%[15.4 µM]	10µM*
Nc1ncnc2c1ncn2[C@@H]1O[C@H](CNCc2cn(CC(=O)NC3CC3)c3ccccc23)[C@@H](O)[C@H]1O	-0.5	-1.0%	nt	nt	7.9%	nt	nt
c1ccc(-c2cc3c(N4CCCCC4)ncnc3s2)cc1	14.9	nt	-9.4	2.2	-14.8%	5.5%	-26.0%
Cc1cc2c(cc1C)C(c1cccc(F)c1)CC(=O)N2 (stereo not drawn)	-3.4	0.6%	-9.7	4.0	-13.0%	-16.4%	18.6%
O=C(c1ccncc1)N1N=C(C2CC2)CC1(O)C(F)(F)F (stereo not drawn)	18.1	nt	-2.7	0.0	1.1%	10.0%[15.4 µM]	9.5%
O=C(CSc1nc2ccccc2s1)Nc1nccs1	-21.9	2.0%	-3.4	-0.2	8.6%	-10.6%	5.9%
Cn1c(N)c(C(=O)CSc2nc3ccccc3c(=O)n2Cc2ccccc2)c(=O)n(C)c1=O	17.6	nt	nt	2.0	-6.7%	40.3%[15.4 µM]	16.3%
Cc1ccc(OCC(=O)Nc2ccc(N3CCCC3)cc2)cc1C	-12.0	0.3%	-0.1	2.3	-5.6%	-23.3%	31.6µM*
CCCCN1C(=O)C(=O)N(CC(=O)Nc2cccc(C(C)=O)c2)C1=O	-2.7	-1.9%	6.1	nt	16.5%	15.6%	nt
CCOC(=O)N1CCN(C2CCCN(C(=O)c3cccc(Cl)c3)C2)CC1 (stereo not drawn)	-5.3	-1.7%	-10.8	nt	-11.8%	2.3%[15.4 µM]	15.6%
CCOc1ccc(CCN2C(=S)N([C@@H](CC(C)C)CN3CCCC3CN3C(=S)NC[C@@H]3CC(C)C)C[C@@H]2Cc2ccc(O)cc2)cc1 (stereo partly drawn)	-1.6	-1.9%	nt	nt	11.7%	nt	nt
Cc1cc(S(=O)(=O)Nc2noc3ccccc23)ccc1F	-7.4	-4.1%	13.5	-11.0	-1.7%	?	3.9%
CCCOc1cccc(C(=O)Nc2cccc(NC(=O)c3ccco3)c2)c1	-17.0	0.4%	6.5	-1.3	-18.6%	-9.4%	14.6%
CC(C)C[C@@H](CNCC(=O)[C@H](Cc1c[nH]c2ccccc12)NC(=O)c1[nH]cnc1C(=O)N[C@@H](C)CN)NC(=O)c1nc[nH]c1C(=O)N[C@@H](Cc1ccccc1)C(=O)O	-5.3	-1.3%	nt	nt	0.6%	nt	nt
Cn1c(=O)c2c(nc(N/N=C/c3cccnc3)n2Cc2ccccc2)n(C)c1=O	-19.3	nt	-2.9	-1.1	3.5%	-9.1%[15.4 µM]	4.5%
O=C(CC1C(=O)NCCN1C(=O)c1ccccc1)Nc1cc(Cl)ccc1Cl (stereo not drawn)	-16.5	-2.9%	-27.5	nt	1.2%	-4.0%	11.4%
Cc1cc(C(=O)OC(C)C(=O)N2CCc3ccccc32)ccc1[N+](=O)[O-] (stereo not drawn)	-2.1	1.3%	-6.5	nt	-9.5%	-3.4%	nt
CC(=O)Nc1ccc(OC(=O)COc2ccc(Br)cc2)cc1	5.0	-1.1%	-7.2	0.2	2.7%	1.0%	11.3%
COc1ccc(NC(C)=O)cc1NC(=O)c1c(C)noc1C	-0.5	-1.2%	nt	nt	nt	-4.2%	nt

(cont.)
SMILES	TRPML1 blocker	ClpP mod	TRPV1 potentiator	Menin-MLL FL inh	gsp antag	gsp agonist	Sfp PPTase inh
O=C(COc1nncc2ccccc12)NCCC1=CCCCC1	-5.0	-1.2%	-4.8	9.7	-6.5%	-1.7%	-5.3%
Cn1nc(C(=O)N2CCOCC2)c([N+](=O)[O-])c1C(=O)N1CCOCC1	14.2	-0.2%	2.2	2.1	9.6%	20.1%	13.7%
O=C1CN(C(=O)c2cc3ccccc3oc2=O)C(c2ccc(F)cc2)c2cc(F)ccc2N1 (stereo not drawn)	26.6	-17.9%	0.7	1.9	-10.9%	-0.6%	-5.5%
C=CCn1c(SCC(=O)NCC2CCCO2)nnc1C1CCCCC1 (stereo not drawn)	-3.0	3.9%	4.5	7.1	-1.0%	1.7%	9.0%
COc1cc(C(=O)N2CCN(C(=O)c3cc(-c4ccc(Br)cc4)n[nH]3)CC2)cc(OC)c1OC	-7.7	0.6%	-6.4	0.8	-15.0%	-14.5%	1.6%
CN1CCN(C(=O)CCS(=O)(=O)c2cc3c(cc2Cl)NC(=O)CO3)CC1	-23.0	-8.3%	13.8	2.8	-0.3%	-9.6%	4.7%
CC1CC(C)CN(c2ccc([N+](=O)[O-])cc2-c2nn[nH]n2)C1 (stereo not drawn)	36.5	-1.1%	15.9	12.4	-11.2%	24.5%[15.4 µM]	-17.5%
CC(=O)Oc1ccc2ccccc2c1C(NC(=O)C(C)C)c1cccc([N+](=O)[O-])c1 (stereo not drawn)	-9.7	-0.5%	9.4	4.7	-10.8%	-21.2%	-10.2%
COc1ccc(NC(=O)Nc2ccc(Br)cn2)cc1	11.4	0.6%	10.6	-2.7	1.9%	-45.6%[inhibitor]	25.3%
CC(C)c1ccc(N2C(=O)CC(NNC(=O)c3cccnc3)C2=O)cc1 (stereo not drawn)	2.1	0.8%	1.8	-0.4	-10.8%	1.4%[15.4 µM]	3.8%
O=C(NC1CCN(S(=O)(=O)c2ccc(F)cc2)CC1)c1cccnc1	1.6	nt	3.2	nt	-0.2%	-19.9%	11.8%
COc1cccc(-n2c(SCC(=O)N3c4ccccc4CC3C)nnc2-c2ccco2)c1 (stereo not drawn)	11.2	0.3%	-3.3	6.4	-3.7%	8.9%	-10.8%

Screens from PubChem.
